Sa ugtP lethal = kills S. aureus RN4220 lacking UgtP; 0.54% of 330,000 active; S. aureus RN4220 ugtP deletion, OD600 growth, 16 h; some inactives read as strong as hits; AID 1259309; growth inhibition, % (test concentration not listed);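 active = z-score under -3 and OD600 up to 0.15 on both plates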;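 also: plate controls were untreated wells for no effect and antibiotic for full effect; wells of about 80 µL received 100 nL stock; the first replicate is given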
RN4220 kill = kills Staphylococcus aureus RN4220. S. aureus RN4220 growth, OD600, 16 h. inhibition, % (no concentration beside the values). 0.33% of 330,000 active. AID 1259311;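 active = z-score of -3 or lower and OD600 up to 0.18 on both plates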;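 also: plate controls were untreated cells for no effect and reference antibiotic for full effect; stock transfer was 100 nL into about 80 µL; one replicate is shown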
Autofluor counter = compound fluorescence in toxin protease inhibitor counterscreen; compound autofluorescence counterscreen, microsphere flow cytometry; active compounds read high; fluorescence intensity (concentration not given with the values); 3.1% of 360,000 active;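 active = at least 3 SD above the mean of all compounds, about 16000 in these data; inconclusive = too few beads counted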;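 also: 100 nL of 1 mM stock went into each well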
BJeLR viability = kills HRASV12-expressing BJeLR cells; BJeLR (HRASV12) viability, CellTiter-Glo ATP luminescence, 48 h; reference of the scale not given here; inhibition, % (no concentration beside the values); 0.17% of 300,000 active; AID 1554;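 active = replicate mean above 50%; inconclusive = above 50% but judged a plate artefact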;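 also: 50 nL library stock added to about 25 µL; numbers are from one replicate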
Mtb hypoxia inh = reduces hypoxia-regulated biosensor signal in M. tuberculosis. M. tuberculosis hypoxia-regulated fluorescent reporter, fluorescence. fluorescence inhibition, % (test concentration not listed). 0.1% of 300,000 active. AID 1159583;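 active = 35 to 45% if threefold the growth effect, above 45% if 1.5-fold the growth effect; inactive = the rest, general growth blockers included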;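 also: wells of about 50 µL received 100 nL stock; 0% = vehicle wells and 100% = reference inhibitor wells; whole bacteria with a GFP reporter of the hypoxia response; strong numbers were not always called active; many hits fall short of the cut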
PrP 5UTR inh = suppresses PrP 5' UTR mRNA reporter expression. inhibition, % (no concentration beside the values). 0.35% of 340,000 active. AID 488862. cell-based PrP 5' UTR mRNA reporter, plate reader;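 active = every replicate at 50% or more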;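 also: 0 = median of the neutral control wells; tested in H4 reporter cells; numbers are from one replicate; inactives centre near -14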
Mtb hypoxia inh growth = further read-out of Mtb hypoxia inh, marked with its call; growth inhibition, %; measured here: M. tuberculosis growth (absorbance);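 0% = vehicle and 100% = reference antibiotic; read after six days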
* = called active by the depositor; ? = inconclusive; . = not tested or not shown. Rows are unselected; overall some 4% were active at least once.

entry	Structure	Sa ugtP lethal	RN4220 kill	Autofluor counter	BJeLR viability	Mtb hypoxia inh	Mtb hypoxia inh growth	PrP 5UTR inh
1	Fc1ccc(N2CCN(C(=S)NCC3CCCO3)CC2)cc1 (stereo unspecified)	8	7.4	3933	4	5	5	-15
2	Cc1ccc(/C=C2\C(=O)NC(=O)N2C)o1	4	3.5	3951	9	9	-2	-1
3	CN(c1ccccc1)S(=O)(=O)c1ccc(NC(=O)c2ccc(-c3ccccc3)cc2)cc1	-20	7.6	11436	4	-4	2	-10
4	CN(c1ccccc1)c1cc(=O)[nH]c(=O)[nH]1	3	-1.6	1866	-1	-1	-22	-5
5	Cc1ccc(NC(=O)CSc2nncn2-c2ccccn2)cc1Cl	-1	4.4	3720	-13	3	10	-7
6	COc1ccccc1CNC(=O)c1ccccc1N(C)S(C)(=O)=O	-1	4.6	19853*	18	3	9	-22
7	CCOC(=O)CC1C(=O)NCCN1Cc1ccc(OC)c(OC)c1 (stereo unspecified)	-2	-5.2	4078	-5	0	2	-21
8	COc1ccc(/C=C2\SC(=S)N(CC(=O)NC3C=CS(=O)(=O)C3)C2=O)cc1 (stereo unspecified)	-7	7.2	5640	-7	-4	9	5
9	FC(F)(F)c1ccccc1-n1c(-c2ccco2)n[nH]c1=S	.	.	3236	-1	.	.	-19
10	COc1cccc(OCCc2c(C)n[nH]c2C)c1	-5	1.5	4231	-2	-4	0	-16
11	O=c1[nH]c2ccccc2n2c(C(F)(F)F)nnc12	1	3.3	3439	-10	-2	-6	-25
12	C=CCSc1nnc(-c2cc3c(s2)-c2ccccc2CC3)o1	24	24	2250	-2	.	.	-35
13	CC(=O)N1CCN(c2ccc(NC(=O)c3ccc([N+](=O)[O-])cc3Cl)cc2)CC1	6	2.3	2942	13	-6	-3	12
14	Cc1cc(C)c(-c2c(O)c3ccccc3n(C)c2=O)c(C)c1	1	1.8	4623	-8	4	10	.
15	COc1ccc(-c2ccc(CCC(=O)O)n2CC(C)C)cc1	13	1.3	11478	-9	8	5	-14
16	O=[N+]([O-])c1ccc(-n2nncc2-c2ccc(Cl)cc2)cc1	1	7.0	11226	-18	14	6	.
17	Cc1ccc(Nc2oc(C)nc2C#N)cc1	-4	4.9	8183	1	13	5	-35
18	O=C(c1ccc2nc(Cc3cccc(Cl)c3)oc2c1)N1CCC[C@H]1CO	.	.	4313	4	.	.	-18
19	O=C(CCS(=O)(=O)c1ccccc1)Nc1cccc2c1C(=O)NC2=O	2	0.4	4357	-10	-10	-10	-10
20	O=C(COC(=O)Cc1ccc(-c2ccccc2)cc1)NCc1ccccc1	-4	2.3	2211	7	9	8	-32
21	O=C(Cn1nnc(-c2ccncc2)n1)N1CCc2ccccc21	2	6.2	13431	-14	8	6	-10
22	CCOCCc1nnc(NC(=O)c2ccc(OC)c(OC)c2)s1	-2	1.3	3022	-9	.	.	-12
23	Cc1ccc(CNC(=O)CN(C)S(=O)(=O)c2cccc3cccnc23)cc1	4	3.2	5886	-10	.	.	-7
24	COc1ccc(CCNC(=O)c2ccccc2NS(=O)(=O)c2c(F)cccc2F)cc1	-4	13	4895	3	1	3	-8
25	NC(=O)NC(CC(=O)NNC(=O)c1ccccn1)c1ccc(Cl)cc1 (stereo unspecified)	12	3.5	3622	.	-2	-2	-18
26	CN(CC(=O)Nc1ccccc1F)CC(=O)Nc1ccc(F)c(F)c1F	1	2.2	1984	-2	3	14	-20
27	N#CC(C#N)=C1C=CC=CN1/C(=C\c1ccccc1)C(=O)c1cccs1	3	5.7	3767	1	0	7	0
28	C=CCN(c1ccc(C(=O)Nc2ccc(C)c(C)c2)cc1)S(C)(=O)=O	3	1.5	2114	5	-6	-6	-31
29	Cc1cc(C)cc(N(CCC#N)C(=O)COC(=O)CN2C(=O)NC(C)(C)C2=O)c1	6	1.9	4830	6	2	2	-12
30	NS(=O)(=O)c1ccc(N2N=C(c3ccccc3)CC2c2cccc(Br)c2)cc1 (stereo unspecified)	-28	23	3212	.	-12	0	1
31	CC(NC(=O)c1ccccc1F)c1nnc(SCC(=O)NC2CCCC2)n1C (stereo unspecified)	.	.	3315	0	.	.	5
32	CC(=O)Nc1ccc(C(=O)COC(=O)Cc2ccsc2)c(F)c1	-1	2.4	4123	.	-3	7	-79
33	CCOC(=O)C1CCCN(C(=O)c2ccc(OCC)cc2)C1 (stereo unspecified)	-3	4.7	24552*	-4	2	8	-25
34	COc1cc(CC(=O)OCC(=O)NC2CCCC2)cc(OC)c1OC	3	3.6	7827	.	3	0	1
35	CC(C)=NNc1cc([N+](=O)[O-])cc2c1C(=O)N(C)S2=O (stereo unspecified)	-3	-4.8	4480	11	7	4	-9
36	COc1cc(NC(=O)c2cccc(C)c2)c(OC)cc1NC(=O)CN1CCCCC1	2	4.0	2135	10	9	9	-18
37	COc1ccc(C2=NOC3(CC(=O)N(c4ccc(F)cc4)C3=O)C2)c(OC)c1 (stereo unspecified)	-5	2.1	15217	-7	-1	-3	-7
38	CC(=O)Nc1sc2c(c1CN1CCN(c3ccccn3)CC1)CCCC2	1	-1.3	22350*	-10	1	9	-7
39	CCN(C(=O)COC(=O)c1cccc(-n2cnnn2)c1)C1CCCCC1	2	0.7	4246	2	-13	-2	-32
40	O=C(c1ccccc1)c1ccc2ccccc2c1	18	6.5	3957	.	9	12	-54
41	Cc1nn(Cc2ccc(C(=O)NC3CCCCC3)o2)c(C)c1Br	0	6.9	12582	-4	7	9	-33
42	CN(c1ccccc1)S(=O)(=O)c1cc(C(=O)N2CCN(c3ccccn3)CC2)ccc1Cl	1	4.4	3323	6	5	2	-9
43	CCOC(=O)C1=C(CP(=O)(c2ccccc2)c2ccccc2)NC(=O)NC1c1ccc(Cl)cc1 (stereo unspecified)	-2	0.8	8454	5	9	2	-34
44	O=C(COc1ncnc2cc([N+](=O)[O-])ccc12)NCc1ccc2c(c1)OCO2	2	-6.3	2605	2	.	.	-12
45	COc1ccc(NC(=O)Cn2nnc(-c3ccccc3F)n2)cc1	8	-0.7	2020	.	.	.	-11
46	Cc1cccc(N2CCN(C(=O)c3cccs3)CC2)c1C	25	4.8	3036	-12	7	10	-23
47	COC(=O)C1=C(C(=O)c2ccc(C)cc2)C(c2ccc(O)c(OC)c2)n2nnnc2N1 (stereo unspecified)	3	-8.0	2801	-8	18	7	3
48	O=C(c1ccccn1)N1N=C2/C(=C/c3ccc(F)cc3)CCCC2C1c1ccc(F)cc1 (stereo unspecified)	.	.	11347	-3	.	.	-19
49	C/C(=N\NC(=O)c1cc(-c2ccc(C)s2)[nH]n1)c1ccncc1	.	.	3659	-1	.	.	-24
50	CC(C)C1Oc2ccccc2N(CC(=O)N2CCOCC2)C1=O (stereo unspecified)	5	1.7	3775	-4	15	5	-16
51	C=CCn1c(C)cc(C(=O)CN2C(=O)NC3(CCCc4ccccc43)C2=O)c1C (stereo unspecified)	-5	3.0	3506	-1	1	0	-17
52	COc1cc2c(cc1OC)[C@@H](NC(=O)c1ccc(C(F)(F)F)cc1)[C@H](OCc1ccccc1)C2	28	5.0	3544	.	3	5	-14
53	Cc1ccc(NC(=O)C2(S(=O)(=O)c3ccc(Cl)cc3)CC2)c(Br)c1	28	-1.8	5805	6	0	-3	2
54	CCN(CC)S(=O)(=O)c1ccc(-n2c(=O)c(C(C)C)c(C)n2C)cc1	10	5.8	4774	0	11	1	0
55	Cc1ccccc1NC(=O)Cc1nc(COC(=O)c2ccc(O)cc2O)cs1	9	0.0	4236	-9	-3	-5	-2
56	Cc1ccc(C(=O)c2c3ccccc3[n+]([O-])n2CCC(=O)O)cc1	5	1.8	3014	.	-5	5	-25
57	O=C(NNc1nc2ccccc2s1)Nc1ccccc1	.	.	2309	-5	.	.	-98
58	O=c1nc(C(F)(F)F)nc2ccccn12	3	-1.8	9868	4	4	-7	-12
59	COc1cccc(CNC(=O)c2ccccc2NC(=O)C2=C(C)OCCS2)c1OC	-1	-0.3	4955	7	-3	-5	2
60	CCOC(=O)Cc1ncccc1C(=O)Nc1ccc(OC)cc1	-3	4.0	3715	5	9	0	-89

Next structures
entry	Structure	Sa ugtP lethal	RN4220 kill	Autofluor counter	BJeLR viability	Mtb hypoxia inh	Mtb hypoxia inh growth	PrP 5UTR inh
61	Cc1ccc(C(=O)N2N=C(c3ccccc3O)CC2c2ccccc2)cc1 (stereo unspecified)	-4	-8.5	2967	-13	7	-2	2
62	CN1CCN(c2nc(-c3ccccc3Cl)nc3ccccc23)CC1	-1	1.7	3633	8	5	8	1
63	O=C(NNc1c2ccccc2nc2ccccc12)c1ccc(Cl)cc1	-4	-2.1	3496	9	6	5	-7
64	O=C(NCCCN1CCOCC1)c1cn(-c2ccccc2)nc1-c1ccc(Br)cc1	-3	-0.8	5513	.	18	9	-16
65	CN(CC(=O)OCC(=O)NC1CCCC1)S(=O)(=O)c1ccc(Cl)cc1	9	5.8	3156	.	11	1	1
66	CCOC(=O)C1CCCN(Cc2ccc3c(c2)OCO3)C1 (stereo unspecified)	11	3.2	16327*	-12	6	4	-43
67	CCSc1nnc(NC(=O)CSc2nnc(Cc3cccn3C)n2-c2ccc(C)cc2)s1	5	12	11807	4	-5	3	-11
68	Nc1ccc(C2(c3ccc(N)cc3)CN3CCC2CC3)cc1	.	.	2192	0	.	.	-52
69	Cc1cccc2cc(CN(Cc3ccc(F)cc3)C(=O)N3CCOCC3)c3nnnn3c12	-1	3.2	3546	-5	6	2	-9
70	O=C(NCc1ccco1)c1ccc(Cn2c(=O)c3ccccc3n(Cc3cccc(F)c3)c2=O)cc1	23	-5.5	4310	1	7	-1	-15
71	Cn1nc(C(F)(F)F)cc1C(=O)Nc1ccc(Cl)cc1	-14	0.3	4636	-3	10	17	-16
72	C=CCn1c(O)c(C(CC)=NCCN2CCOCC2)c(=O)[nH]c1=O	-1	0.5	19747*	5	0	22	-6
73	CCCCn1nc2cc(C(=O)NCC34CC5CC(CC(C5)C3)C4)ccc2c1OC	-23	-6.1	3672	9	3	12	-37
74	Cc1ccc(S(=O)(=O)N(C)C)cc1NC(=O)COC(=O)c1c(-c2ccccc2)noc1C	6	2.9	?	4	5	-1	-18
75	CCOC(=O)c1cc(CC)sc1N=CC1C(=O)NC(=S)NC1=O	-3	11	.	.	3	2	.
76	CCC(=O)c1c[nH]c(C(=O)NCc2cccnc2)c1	3	0.4	4738	4	-5	6	-15
77	O=C(O)CC1Sc2ccccc2NC1=O (stereo unspecified)	12	-2.5	3059	-3	.	.	11
78	CC(=O)Nc1ccc(S(=O)(=O)NC(CC(=O)O)c2ccc(C)cc2)cc1 (stereo unspecified)	7	3.5	5038	-6	13	2	-7
79	CCOC(=O)Cc1csc(NC(=O)c2cc3ccccc3o2)n1	6	1.2	3890	4	0	15	-20
80	Cc1cc[n+](-c2[nH]c(=O)sc2C=NNC([S-])=Nc2ccccc2)cc1	-4	3.9	.	.	14	6	.
81	CC(C)(CO)CNC(=O)CCc1nnc(CCCc2ccccc2)o1	6	0.4	2058	2	4	-1	-47
82	COC(=O)C(C)n1cnc2c(nnn2-c2cccc(Cl)c2)c1=O (stereo unspecified)	0	3.9	4684	-6	-1	-3	3
83	Cc1cc(C)c2c(CC(=O)NC3CCS(=O)(=O)C3)coc2c1 (stereo unspecified)	-4	0.5	4949	6	-1	2	-14
84	Fc1ccc(NC(=S)N/N=C/c2cccc(Br)c2)c(F)c1	.	.	20663*	-6	.	.	-16
85	CC(C)N(C(=O)Cn1c(SCC(=O)Nc2nccs2)nc2ccccc21)C(C)C	-1	3.8	9243	-3	9	11	-20
86	Cc1ccc(CC2S/C(=N/N=C/c3ccco3)NC2=O)cc1 (stereo unspecified)	.	.	3273	-5	.	.	-12

Entries above with a cyano group, in the order listed:
entry	Structure	Sa ugtP lethal	RN4220 kill	Autofluor counter	BJeLR viability	Mtb hypoxia inh	Mtb hypoxia inh growth	PrP 5UTR inh
17	Cc1ccc(Nc2oc(C)nc2C#N)cc1	-4	4.9	8183	1	13	5	-35
27	N#CC(C#N)=C1C=CC=CN1/C(=C\c1ccccc1)C(=O)c1cccs1	3	5.7	3767	1	0	7	0
29	Cc1cc(C)cc(N(CCC#N)C(=O)COC(=O)CN2C(=O)NC(C)(C)C2=O)c1	6	1.9	4830	6	2	2	-12

Bioassay records: PubChem BioAssay, several laboratories
